Screening results deposited in PubChem by ICCB-Longwood Screening Facility, Harvard Medical School.
Ab BasE inh: inhibitors of Acinetobacter baumannii siderophore enzyme BasE. AID 485350. inhibition, % (test concentration not listed). purified BasE, fluorescence polarization binding displacement. hit rate 0.1% among 84,000;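 active = both replicates above 25% with normal brightness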;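 note: 0% = negative plate control signal and 100% = positive plate control signal; stock transfer was 100 nL into about 30 µL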
LANA-nucl inh: inhibitors of KSHV LANA binding to nucleosomes. FITC-LANA1-23 / chicken nucleosome fluorescence polarization; active compounds read low. z-score (test concentration not listed). hit rate 0.3% among 51,000. AID 720717;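 active = both repeat wells score below -2 in polarization z-score versus plate sample wells, excluding overly bright wells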;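 note: 100 nL library stock added to about 30 µL; numbers are from one replicate; some results filed as inactive read as strong as hits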
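Assay system: FITC-LANA peptide and chicken nucleosomes; input: 240 nM purified chicken nucleosomes (480 nM peptide binding sites), final; also added: 50 nM FITC-LANA1-23 probe; medium: TEN-BT buffer, pH 7.5; doses: pin-transferred compound, 100 nL; times: 10–45 min, room temperature; technique: fluorescence polarization; replication: duplicates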
Active calls of the source: *; · = not tested or not shown; & = joins results of further samples.

SMILES	Ab BasE inh	LANA-nucl inh
CCCCNC(=O)CN1N=C(c2ccccc2)CCC1=O	2.4	-1.2
CC(=O)Nc1cc(NC(C)=O)cc(C(=O)N2CCCC3CCCCC32)c1 (configuration not stated)	1.5	·
COc1cc(C(C(=O)NC2CCCCC2)N(Cc2ccco2)C(=O)c2cnccn2)cc(OC)c1OC (configuration not stated)	0.2	-0.962
CCN(CC)S(=O)(=O)c1cc(C)ccc1OC	-0.9	-1.12
COC(=O)C(NC(=O)C12CC3(C)CC(C)(CC(C)(C3)C1)C2)C(C)C (configuration not stated)	-0.8	·
COc1ccc(NC(=O)CC2C(=O)N(Cc3ccco3)C(=S)N2CCCN2CCN(c3ccc(F)cc3)CC2)cc1 (configuration not stated)	0.1	0.482
CCc1ccc2c(c1)C1CC(C)(O2)N(CC)C(=S)N1 (configuration not stated)	4.4	-0.173
OCCCc1cc(-c2ccccc2)n[nH]1	0.4	·
O=C(O)Cc1csc(-c2ccsc2)n1	4.2	·
O=C(COC(=O)c1cccc(C(=O)OCC(=O)NC2CC2)n1)NC1CC1	2.1	·
COc1ccc(Cl)cc1N(CC(=O)N1CCN(Cc2ccccc2)CC1)S(C)(=O)=O	0.4	-1.53
CN(C)c1ccc(/C=C/c2ccncc2)cc1	0.7	·
Cc1ccsc1C1c2c(C)nn(-c3ccccc3)c2N=C(c2ccccc2O)C1C(=O)O (configuration not stated)	-2.4	·
CC(Oc1ccc2c(-c3ccccc3)cc(=O)oc2c1)C(=O)N1CCOCC1 (configuration not stated)	-0.7	·
CC(C)(C)NC(=O)CN1CCN(c2nc(-c3ccc(Cl)cc3)cs2)CC1	0.8	0.584

Next part; the last 2 above are carried over.
SMILES	Ab BasE inh	LANA-nucl inh
CC(Oc1ccc2c(-c3ccccc3)cc(=O)oc2c1)C(=O)N1CCOCC1 (configuration not stated)	-0.7	·
CC(C)(C)NC(=O)CN1CCN(c2nc(-c3ccc(Cl)cc3)cs2)CC1	0.8	0.584
Cc1ccc(CN2CCS(=O)(=O)CC2)o1	·	-0.459
CC(=O)Oc1cncc(C(=O)O)c1	-0.2	·
Nc1nnc(SCC(=O)OCC(=O)Nc2nc(-c3ccccc3)cs2)s1	-0.6	·
CC(C)c1ccc(S(=O)(=O)CC#N)cc1	1.6	·
CC(=O)N1CCc2cc(-c3csc(N)n3)ccc21	1.4	·
O=C(Nc1nc2c(s1)CCCC2)C1CCCCC1	-2.8	0.042
COc1ccc(NC(=O)NC(C)c2c(-n3cccc3)sc3c2CCCC3)cc1 (configuration not stated)	-0.4	0.0535
CC(OC(=O)C1CCCO1)C(=O)NC1CCCC1 (configuration not stated)	0.4	-0.0395
COC(=O)c1ccc(N2C(=O)C3ON(c4ccccc4C)C(c4ccc(F)cc4)C3C2=O)cc1 (configuration not stated)	-1.3	·
CNCCCC12CCC(c3ccccc31)c1ccccc12	-2.5&1.1	0.497&0.274&0.0025&0.393&-0.584
FC(c1nc2ccccc2[nH]1)C(F)(F)F (configuration not stated)	-1.1	0.393
CN(C)S(=O)(=O)c1ccc(C(=O)Oc2ccc(-n3ccnc3)cc2)cc1	3.1	·
Cc1ccc(-c2csc(NC(=O)CC3CCCC3)n2)o1	-1.5	·
CC(C)(C)S(=O)(=O)Cc1nc(-c2ccc(C(F)(F)F)cc2)cs1	-0.6	0.571
Cc1ccc(NCc2nc3ccccc3s2)cc1	1.5	·
CN1C(=O)c2cccc3c(Cl)cc(Cl)c1c23	0.9	·
CCOC(=O)c1ccccc1N/C=C/C(=O)C(C)(C)C	2.4	-0.424
C=CCn1c(C)cc(C(=O)Cn2c(C(C)O)nc3ccccc32)c1C (configuration not stated)	-1.3	·
CCc1ccc(NC(=O)CN(C)S(=O)(=O)c2ccc3[nH]c(=O)oc3c2)cc1	1.1	0.724
Cc1ccccc1OCc1nnc(SCC(=O)O)n1CCc1ccccc1	0.6	-0.397
CCCCNc1nc2ccccc2[nH]1	-0.9	·
CCn1c(=O)c2c(n3c(SCC(N)=O)nnc13)-c1ccccc1CC21CCCCC1	0.9	·
CCCCN=C1SCC(c2cc(C)n(Cc3ccco3)c2C)=NN1C	0.3	·
Fc1cccc(Cl)c1CSc1ncn[nH]1	·	-0.0885
CCOC(=O)c1[nH]c(CN2CCc3ccccc3C2)c(C(=O)OCC)c1C	-1.1	·
O=C1CCC(C(=O)OCC(=O)N2CCOCC2)=NN1	2.3	·
CN(Cc1ccccc1)C(=O)c1ccc(-n2ccc3ccccc32)s1	0.6	0.736
CN(Cc1cccs1)CC(O)COCc1ccco1 (configuration not stated)	0.8	·
Clc1cccc(Cc2cn3cc(-c4ccccc4)nc3s2)c1	-0.9	·
NC(=S)N1N=C(c2cccs2)CC1c1ccco1 (configuration not stated)	0.3	·
COC(=O)C1=C(C)OC(N)=C(C#N)C1c1cc2ccc(C)cc2[nH]c1=O (configuration not stated)	1.0	-0.243
CC(=O)NC12CC3CC(C1)CC(C(=O)OC(C)C(=O)Nc1ccccc1C#N)(C3)C2 (configuration not stated)	1.2	·
Cc1cnc(NC(=O)C2CCC(C(C)(C)C)CC2)s1 (configuration not stated)	0.1	·
Cc1[nH]c(-c2ccc(F)cc2)cc1C(=O)N1CCN(c2ccccc2F)CC1	-0.2	0.378
C=COC(=O)CSc1nc(-c2cccs2)ccc1C#N	-40.8	1.04
[O-]/[N+](Cc1ccccc1F)=N\O	0.3	1.13
NC(=O)CP(=O)(c1ccccc1)c1ccccc1	-2.1	0.16
C=CCN(CC=C)Cc1nc(N)nc(Nc2ccccc2C)n1	1.6	·
COc1ccc(C2Nn3c(C)nnc3SC2C(=O)N2CCCC2)cc1 (configuration not stated)	0.8	-0.68
COc1ccc(NS(=O)(=O)c2ccccc2)cn1	4.6	-0.159
N#C/C(=C/c1cn(-c2ccccc2)nc1-c1cc2ccccc2o1)S(=O)(=O)c1ccccc1	-1.4	·
CC(C)CCNC(N)=O	-0.8	·
O=C(NC1CC1)c1cc2cc(Cl)ccc2oc1=O	2.9	-0.309
Cc1cc(=O)[nH]c(NN=C(CC(C)C)CC(C)C)n1	2.1	·
N#CCCCN1C(=O)C(=C(C#N)C#N)c2ccccc21	3.5	-0.367
Cc1noc(C)c1COC(=O)CCc1ccc(S(=O)(=O)N2CCCCC2)cc1	1.0	·
CCOc1ccc2nc(SCCC(=O)Nc3ccccc3)sc2c1	4.0	·
O=c1c(Cl)c(Cl)cnn1-c1nc2ccccc2[nH]1	3.9	·
O=C(/C=C/c1ccc(Br)o1)OCC(=O)N1CCCC1=O	-0.1	·
NC(=S)Cc1nnc(N2CCOCC2)n1-c1ccccc1	1.3	·
c1ccc2c(c1)NCCCS2	1.5	·
Cc1ccc(SC(C)C(=O)NCC(C)C)cc1 (configuration not stated)	-0.6	-0.332
COC(=O)C1=C(C)N(CC2CCCO2)C(=O)/C1=C\c1cc(C)n(-c2ccc(OC)c(Cl)c2)c1C (configuration not stated)	1.9	·
CCOc1ncnc2ccc(Br)cc12	1.6	0.274
Cc1sc2nc(C)n(/N=C/N(C)C)c(=O)c2c1C	1.3	·
COc1ccc(-n2c(=O)[nH]cc(C(=O)N3CCCc4ccccc43)c2=O)cc1	-0.6	0.0505
CC(=O)NC1C(=O)N(C)c2c(C)cc(C)cc21 (configuration not stated)	1.0	0.197
O=C(NCCc1ccccn1)C1COc2ccccc2O1 (configuration not stated)	·	2.88
O=c1oc(Cl)c(Cl)c2ccccc12	14.6	0.528
Cc1cc(-n2c(C)cc(C(=O)CN3C(=O)NC4(CCCCCC4)C3=O)c2C)no1	-1.9	·
Remaining list, next part.
SMILES	Ab BasE inh	LANA-nucl inh
CCN(CC)C(=S)SCc1cn2cccnc2n1	1.8	·
CCC(C)NC(C)C(=O)Nc1ccc(Cl)cc1Cl (configuration not stated)	-3.0	·
CCc1ccc(N2COc3ccc4c(CC)cc(=O)oc4c3C2)cc1	2.5	0.115
CCCc1nnc(SCc2ccccc2C#N)o1	2.1	0.205
CC(Sc1ccc2c(c1)OCCO2)C(=O)Nc1ccc2c(c1)OCCO2 (configuration not stated)	2.9	·
O=C(O)c1cccn1-c1ncc(C(F)(F)F)cc1Cl	·	0.385
NC(=O)C1CCN(Cc2nc3ccccc3c(=O)[nH]2)CC1	1.9	-0.841
CC(C)(C)C(=O)C1=C(O)C(=O)N(c2ccccc2)C1c1ccccc1 (configuration not stated)	-1.4	1.3
CCOc1ccccc1N(CC(=O)NC)S(C)(=O)=O	-0.8	0.707
CC1(C)CN(C(=S)Nc2ccc(F)cc2F)C1=O	-0.2	0.008
CC(C#N)(NC(=O)CN1CCN(S(=O)(=O)c2ccccc2Cl)CC1)C1CC1 (configuration not stated)	-7.6	·
Cc1ccccc1NC(=O)Cc1nc(COC(=O)/C=C/c2ccco2)cs1	0.8	·
CC(Cn1nnc2ccccc21)C(=O)O (configuration not stated)	4.2	·
CC(C)c1cc(=O)[nH]c(SCc2nc3ccccc3[nH]2)n1	-0.4	-1.37
O=C(CSc1nc(-c2ccco2)cc(C(F)(F)F)n1)Nc1ccccc1	1.9	-0.157
COc1cc(C(=O)Nc2ccc(N3CCCCC3C)cc2)cc(OC)c1OC (configuration not stated)	-0.3	-0.506
Cc1cccc(/C=N/n2c(C)nnc2C)c1	1.7	0.353
CCNc1nc(N2CCOCC2)c2ccccc2n1	-2.9	1.02
Cc1cccc(N=c2oc3cc(O)ccc3cc2C(N)=O)c1	-0.7	1.18
CCC(=O)N1CCN(c2nc(C(C)C)nc3sc4c(c23)CCCC4)CC1	0.5	-2.25
Cc1cccc(N2CCN(c3cccc(C)c3)C2c2cccnc2)c1	1.4	0.169
N#Cc1cccc(C(=O)NCCc2ccc3c(c2)OCCO3)c1	6.1	·
COc1cc(CO)c(CC(=O)NN)cc1OC	2.1	·
COc1ccc(S(=O)(=O)NCc2ccc(C(=O)N(C)Cc3ccco3)cc2)cc1	-0.8	-0.496
CCSC1=NN2CCS(=O)(=O)N=C2S1	0.8	·
Clc1cccc2c(NCCCN3CCOCC3)cnnc12	-3.0	·
O=C1OC(c2ccccc2)=N/C1=C/c1ccco1	0.3	0.461
Cc1nc(N)nc2c1CCCC2	0.7	·
CCCCOc1ccc(C(=O)NC2CCN(C)CC2)cc1	-2.5	0.473
O=C1COc2ccccc2N1CC(=O)N(CC1CCCO1)C1CCS(=O)(=O)C1 (configuration not stated)	-0.9	·
O=C(CSc1nccn1Cc1ccccc1)N1CCN(C(=O)c2cccs2)CC1	0.3	·
O=C(c1c(F)cccc1F)N1CCN(C/C=C/c2ccccc2)CC1	-0.2	0.203
CC1CCCCN1C(=O)c1cccc(C#N)c1 (configuration not stated)	0.8	·
CCn1c(CN2CCCCC2)nc2cc(S(=O)(=O)N3CCCCC3)ccc21	0.1	·
CC1CCCC(C)N1C(=O)COC(=O)c1ccc2c(c1)OCO2 (configuration not stated)	1.4	·
COc1ccc(CCN2C(=O)CNC2=S)cc1	-2.6	0.572
Cc1ccc(OC(=O)c2c(-c3ccccc3)nnc3ccccc23)cc1	2.2	·
c1ccc(Cn2c(Nc3ccccc3)nc3ccccc32)cc1	0.0	0.379
N=c1n(CC(N)=O)c2ccccc2n1Cc1ccccc1Cl	-1.7	-0.232
O=C(c1ccc(NS(=O)(=O)c2ccc3[nH]c(=O)[nH]c3c2)cc1)N1CCN(c2ccc(F)cc2)CC1	0.5	·
Clc1ccc(-c2cn3ccsc3n2)cc1	·	0.002
Cc1ccccc1-c1n[nH]n2c1nc(=O)c1cc(Cl)ccc12	0.1	0.639
O=C(Cn1c(=O)cnc2ccccc21)NCCc1ccccc1	1.1	·
C#Cc1ccc(NC(=O)CCc2cc(OC)no2)cc1	-1.2	-0.347
Cc1nn(-c2ccccc2)c(N2CCCC2)c1/C=N/NC(=O)c1ccccc1O	0.9	·
CC(C)NC(=O)CC#N	1.2	·
COc1cccc2c(=O)c(NC(=O)N3CCC(CO)CC3)c[nH]c12	2.4	-0.867
O=C(COCc1cc(-c2ccc3c(c2)OCO3)on1)Nc1cc(F)ccc1F	0.8	0.904
CCN(CC)C(=O)CSc1ncnc2c1cnn2-c1ccccc1	-0.1	0.08
Cc1cccc(OCc2nnc(SCn3nnc4ccccc4c3=O)o2)c1	0.9	·
CCSC1=N/C(=C\c2ccc(N(C)C)cc2)C(=O)S1	-37.2	2.4
NC(=O)C1(Nc2ccccc2)CCCCC1	0.4	-0.617

Quoted from the results shown, 17 compounds:
SMILES	Ab BasE inh	LANA-nucl inh
Cc1cc(=O)[nH]c(NN=C(CC(C)C)CC(C)C)n1	2.1	·
N#CCCCN1C(=O)C(=C(C#N)C#N)c2ccccc21	3.5	-0.367
Cc1noc(C)c1COC(=O)CCc1ccc(S(=O)(=O)N2CCCCC2)cc1	1.0	·
CCOc1ccc2nc(SCCC(=O)Nc3ccccc3)sc2c1	4.0	·
O=c1c(Cl)c(Cl)cnn1-c1nc2ccccc2[nH]1	3.9	·
O=C(/C=C/c1ccc(Br)o1)OCC(=O)N1CCCC1=O	-0.1	·
NC(=S)Cc1nnc(N2CCOCC2)n1-c1ccccc1	1.3	·
c1ccc2c(c1)NCCCS2	1.5	·
Cc1ccc(SC(C)C(=O)NCC(C)C)cc1 (configuration not stated)	-0.6	-0.332
COC(=O)C1=C(C)N(CC2CCCO2)C(=O)/C1=C\c1cc(C)n(-c2ccc(OC)c(Cl)c2)c1C (configuration not stated)	1.9	·
CCOc1ncnc2ccc(Br)cc12	1.6	0.274
Cc1sc2nc(C)n(/N=C/N(C)C)c(=O)c2c1C	1.3	·
COc1ccc(-n2c(=O)[nH]cc(C(=O)N3CCCc4ccccc43)c2=O)cc1	-0.6	0.0505
CC(=O)NC1C(=O)N(C)c2c(C)cc(C)cc21 (configuration not stated)	1.0	0.197
O=C(NCCc1ccccn1)C1COc2ccccc2O1 (configuration not stated)	·	2.88
O=c1oc(Cl)c(Cl)c2ccccc12	14.6	0.528
Cc1cc(-n2c(C)cc(C(=O)CN3C(=O)NC4(CCCCCC4)C3=O)c2C)no1	-1.9	·

The list is partial. The share of hits here may be higher or lower than overall.
